Bioassay records from PubChem.
YB-1 expr inh = inhibitors of YB-1 gene expression, primary screen, cell-based, fluorescence | U2OS, qRT-PCR YB-1 vs CDIP delta delta Cp, 16 h; hits give high values; zero = DMSO, each unit about twofold | delta delta Cp (YB-1 minus CDIP) (test concentration not listed) | hit rate 0.37% among 30,000 | AID 434959, 2010;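 active = delta delta Cp rounded down to an integer at or above 3, about 3 SD of DMSO wells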;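 note: higher means less YB-1 transcript or more CDIP transcript relative to DMSO; stock transfer was 100 nL into about 100 µL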
PD-1 reverse act = activators reversing PD-1 mediated T-cell inhibition, primary screen, luminescence, primary human CD4 T cells, PD-L1 beads; 29,000 tested, under 10 active; CellTiter-Glo 96 h; AID 2316, 2010; activation, % (test concentration not listed);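 active = replicate mean of 50% or more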;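 note: 0% = median vehicle wells and 100% = positive control; 100 nL library stock added to about 50 µL; numbers are from one replicate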
Shh pathway inh = Hedgehog pathway signaling inhibitors, primary screen, luminescence, Shh-LIGHT2 cells, Gli-luciferase. Shh-LIGHT2 Gli-luciferase reporter, 30 h. hit rate 2.1% among 22,000. inhibition, % (no concentration beside the values);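 active = replicate mean of 65% or more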;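 note: pathway switched on by Shh-conditioned medium diluted 1 in 25 in low serum; 100 nL library stock added to about 40 µL; 0% = median of neutral wells and 100% = positive control level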
MITF inhib = inhibitors of MITF, primary screen, MITF inhibitor project, cell-based, luminescence | hit rate 0.28% among 37,000 | inhibition, % (test concentration not listed) | TRPM1 promoter luciferase, 24 h | AID 2240, 2010;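 active = most replicates at 85% or more, or half of them and the mean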;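 note: human melanocyte line stably carrying TRPM1 promoter luciferase reporter; 0% = vehicle wells and 100% = a positive control; the first replicate is given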
* hit, by the source's call; · = no result given. Only part of the results is shown (hit frequency here may not be typical).

molecule,YB-1 expr inh,PD-1 reverse act,Shh pathway inh,MITF inhib
O=C(O)c1cccc(COc2ccc(CO)cc2Cl)c1,·,1.9,·,89*
CCCOc1cc(N)ccc1C(=O)OCCN(CC)CC,0.14,·,-24,10
Clc1cccc(Cl)c1-c1cc(-c2ccccn2)on1,-0.3,0.3,-33,-15
CCn1c(SCC(=O)Nc2cccc(SC)c2)nnc1-c1cc2cc(Br)ccc2o1,·,-1.4,·,23
C[C@@H]1CCCCO[C@H](CN(C)S(=O)(=O)c2cccs2)[C@@H](C)CN([C@H](C)CO)C(=O)c2cc(NS(=O)(=O)c3cccs3)ccc2O1,0.025,·,22,18
C[C@@H]1CN([C@H](C)CO)C(=O)c2cc(NC(=O)CCCCCC(=O)Nc3ccccc3N)ccc2O[C@@H]1CN(C)C(=O)Nc1ccccc1,-0.22,-1.6,·,-16
C[C@@H]1CN([C@@H](C)CO)C(=O)c2cccc(NC(=O)c3ccc(-c4nccs4)cc3)c2O[C@H]1CN(C)Cc1ccc(Oc2ccccc2)cc1,-0.53,-1.0,28,60
C[C@@H]1CN([C@@H](C)CO)C(=O)c2cccc(NS(=O)(=O)c3ccc(Cl)cc3)c2O[C@H]1CN(C)C(=O)NC1CCCCC1,0.052,0.3,-56,-5
CCOc1ccc(C(=O)CSc2nnc(-c3ccncc3)n2-c2ccc(C)cc2)cc1,·,0.9,·,-2
CCOc1ccc(NC(=O)C(C)n2nc([N+](=O)[O-])c(Br)c2C)cc1 (stereo not drawn),·,0.0,·,-12
C[C@@H]1CN([C@@H](C)CO)C(=O)c2cc(NC(=O)c3ccncc3)ccc2O[C@@H]1CN(C)C(=O)Nc1ccc(F)cc1,0.15,0.6,-12,-6
C[C@@H]1CN([C@H](C)CO)C(=O)c2cccc(NC(=O)Nc3ccccc3)c2O[C@@H]1CN(C)Cc1ccccc1,0.18,·,-6,-15
Cc1ccc(S(=O)(=O)N(C)C[C@H]2Oc3c(NC(=O)c4ccncc4)cccc3C(=O)N([C@@H](C)CO)C[C@H]2C)cc1,0.033,1.1,37,-41
COc1ccc(CN(C)C[C@@H]2Oc3ccc(NC(=O)Nc4c(C)noc4C)cc3CC(=O)N([C@@H](C)CO)C[C@@H]2C)cc1,-1.2,·,·,14
CS(=O)(=O)N(CC(=O)Nc1ccc(C(F)(F)F)cc1)c1cccc(C(F)(F)F)c1,·,-4.6,·,16
O=C1CC(c2ccccc2)N=C(SCC(=O)Nc2ccc(Cl)cc2)N1 (stereo not drawn),·,-3.4,·,5
C[C@@H]1CN([C@@H](C)CO)C(=O)Cc2cc(NS(=O)(=O)c3ccccc3)ccc2O[C@@H]1CN(C)C(=O)Nc1ccc(C(F)(F)F)cc1,0.34,-2.7,-21,-6
C[C@H]1CN([C@@H](C)CO)C(=O)c2cc(NC(=O)Cn3cnnn3)ccc2O[C@H]1CN(C)Cc1ccc(Cl)c(Cl)c1,0.088,0.8,-20,8
Cc1noc(C)c1S(=O)(=O)Nc1cccc2c1O[C@@H](CN(C)C)[C@@H](C)CN([C@H](C)CO)C2=O,0.14,1.9,21,-3
C[C@@H]1CN([C@H](C)CO)C(=O)c2cc(NC(=O)c3ccncc3)ccc2O[C@H]1CN(C)C(=O)NC1CCCCC1,-0.18,1.9,·,0
C[C@@H]1CCCCO[C@@H](CN(C)S(=O)(=O)c2cccs2)[C@@H](C)CN([C@H](C)CO)C(=O)c2cc(NC(=O)Nc3ccc4c(c3)OCO4)ccc2O1,0.25,-0.7,5,12
CCOC(=O)c1c(NC(=O)Cn2cnc3sc(C)c(C)c3c2=O)sc(C)c1C,·,2.1,·,-3
Nc1cc(C(F)(F)F)ccc1Oc1ccc(C2CCCCC2)cc1,-0.58,-4.7,20,10
CCOC(=O)c1c(C)n(O)c2ccc3nonc3c12,0.42,4.4,-4,11
Cc1ccc(S(=O)(=O)N(C)C[C@H]2Oc3ccc(NS(=O)(=O)c4ccccc4)cc3C(=O)N([C@@H](C)CO)C[C@@H]2C)cc1,-0.092,0.4,-34,0
Cc1noc(C)c1S(=O)(=O)Nc1ccc2c(c1)CC(=O)N([C@@H](C)CO)C[C@@H](C)[C@@H](CN(C)S(=O)(=O)c1cn(C)cn1)O2,-0.29,1.3,-19,-19
C[C@@H]1CN([C@@H](C)CO)C(=O)c2cc(NC(=O)CCC(F)(F)F)ccc2O[C@H]1CN(C)C(=O)NC1CCCCC1,-0.11,0.0,1,3
C[C@H](CO)N1C[C@H](C)[C@H](CN(C)S(=O)(=O)c2cccs2)Oc2c(NC(=O)Nc3ccc4c(c3)OCO4)cccc2C1=O,-0.54,-3.4,0,-17
Cc1cc(C)cc(NC(=O)Cn2cc(C(=O)c3cccs3)c3ccccc32)c1,·,-0.2,·,39
CC(C)(C)c1cn2c3ccccc3nc2n1CCN1CCOCC1,·,-2.3,·,8
COC(=O)c1c(NC(=S)Nc2nc(C)cc(C)n2)sc2c1CCC(C)C2 (stereo not drawn),·,1.6,·,-6
CCc1ccc(CCC(=O)Nc2ccc(OC)cc2)o1,·,1.6,·,-39
CC1(C)CC(CC(=O)N2CCOCC2)(c2ccccc2)CCO1 (stereo not drawn),-0.21,0.5,-21,-5
C[C@@H]1CN([C@H](C)CO)C(=O)c2cc(N(C)C)ccc2O[C@H]1CN(C)C(=O)Nc1ccc(C(F)(F)F)cc1,0.41,·,·,-7
C[C@H]1CN([C@@H](C)CO)C(=O)c2cc(NC(=O)CCCCCC(=O)Nc3ccccc3N)ccc2O[C@H]1CN(C)C(=O)Nc1ccccc1,0.41,-0.6,·,-1
C[C@H]1CN([C@@H](C)CO)C(=O)c2cccc(NC(=O)Nc3ccc(F)cc3)c2O[C@H]1CN(C)S(C)(=O)=O,0.32,2.2,-38,-7
COc1ccccc1NC(=O)CN1C(=O)NC(C)(C)C1=O,·,0.6,·,-10
C[C@@H]1CN([C@H](C)CO)C(=O)Cc2cc(NC(=O)Cc3ccccc3)ccc2O[C@H]1CN(C)Cc1ccc(Oc2ccccc2)cc1,0.2,2.1,-6,-4
COc1cc(O)c(CC=C(C)C)cc1C(=O)/C=C/c1ccc(O)c(CC=C(C)C)c1,-0.23,-1.5,-6,2
C[C@@H]1CN([C@@H](C)CO)C(=O)c2cc(NC(=O)CCN3CCOCC3)ccc2O[C@@H]1CN(C)S(=O)(=O)c1ccc(F)cc1,0.02,·,·,6
C=C1CCC(C)C(C)(CCC2=CCOC2=O)C/C=C\C=C/1C(=O)O (stereo not drawn),0.09,0.0,-44,16
CC(C)(C)NS(=O)(=O)c1ccc(OCC(=O)Nc2ccc(F)c(Cl)c2)cc1,·,-0.5,·,-10
CSc1scc2c1-c1nc(SCC(=O)C(C)(C)C)ncc1CC2,0.38,2.5,38,28
CCc1cc2c(SCC(=O)Nc3cccc(C)c3)ncnc2s1,·,-0.1,·,-6
C[C@@H]1CN([C@H](C)CO)C(=O)Cc2cc(NS(=O)(=O)c3cccs3)ccc2O[C@@H]1CN(C)S(=O)(=O)c1cn(C)cn1,0.13,2.0,-19,4
C[C@@H]1CN([C@@H](C)CO)C(=O)Cc2cc(NC(=O)Nc3cccc4ccccc34)ccc2O[C@@H]1CN(C)C(=O)NC1CCCCC1,-0.086,-6.6,-11,-17
CC(=O)OC[C@H]1O[C@@H](Oc2c(-c3ccc(O)cc3)oc3cc(O)cc(O)c3c2=O)[C@H](O)[C@@H](O)[C@@H]1O,-0.051,0.0,-15,1
COc1ccc(NC(=O)Nc2cccc3c2O[C@@H](CN(C)S(=O)(=O)c2cn(C)cn2)[C@H](C)CN([C@H](C)CO)C3=O)cc1,0.3,1.5,-18,-3
C[C@@H]1CN([C@@H](C)CO)C(=O)Cc2cc(NC(=O)Nc3ccc(F)cc3)ccc2O[C@@H]1CN(C)Cc1ccc2c(c1)OCO2,0.034,·,-31,5
C[C@@H]1CN([C@@H](C)CO)C(=O)c2cccc(NC(=O)C3CCCCC3)c2O[C@@H]1CN(C)Cc1ccc(-c2ccccc2)cc1,-0.57,·,6,10

Record cards, from the list above. Order of values: YB-1 expr inh | PD-1 reverse act | Shh pathway inh | MITF inhib
Entry for C[C@@H]1CN([C@@H](C)CO)C(=O)Cc2cc(NC(=O)Nc3cccc4ccccc34)ccc2O[C@@H]1CN(C)C(=O)NC1CCCCC1 = -0.086 | -6.6 | -11 | -17
Entry for C[C@@H]1CN([C@H](C)CO)C(=O)Cc2cc(NC(=O)Cc3ccccc3)ccc2O[C@H]1CN(C)Cc1ccc(Oc2ccccc2)cc1 = 0.2 | 2.1 | -6 | -4
Entry for C[C@H]1CN([C@@H](C)CO)C(=O)c2cccc(NC(=O)Nc3ccc(F)cc3)c2O[C@H]1CN(C)S(C)(=O)=O = 0.32 | 2.2 | -38 | -7
Entry for Cc1cc(C)cc(NC(=O)Cn2cc(C(=O)c3cccs3)c3ccccc32)c1 = · | -0.2 | · | 39

Going on with the list.
molecule,YB-1 expr inh,PD-1 reverse act,Shh pathway inh,MITF inhib
Cc1ccc(S(=O)(=O)Nc2ccc3c(c2)CC(=O)N([C@@H](C)CO)C[C@@H](C)[C@@H](CN(C)S(=O)(=O)c2cccs2)O3)cc1,0.11,-1.6,-13,4
COc1ccccc1NC(=O)COc1ccc2oc3c(c2c1)CCCC3,-0.21,-0.3,13,-11
COc1ncnc(OC)c1C,0.77,4.9,-39,-5
C[C@@H]1CN([C@H](C)CO)C(=O)c2cc(NC(=O)Nc3ccc4c(c3)OCO4)ccc2O[C@@H]1CN(C)Cc1ccc(C(=O)O)cc1,0.12,0.9,13,-7
COc1c(Br)cc2c(cc(C)n2-c2ccccc2)c1OCC(O)CNC(C)C (stereo not drawn),·,-3.7,·,-31
C[C@@H]1CN([C@H](C)CO)C(=O)c2cccc(NC(=O)Nc3ccc(F)cc3)c2O[C@H]1CN(C)Cc1ccc(Oc2ccccc2)cc1,0.2,-1.1,20,14
CC1(CO)CC(=O)CC2(C)C3=C(CCC12)C(=O)OC3 (stereo not drawn),-0.53,-0.4,-29,-13
C[C@@H]1CN([C@@H](C)CO)C(=O)c2cccc(NC(=O)Nc3ccccc3)c2O[C@@H]1CN(C)CC1CCCCC1,0.3,-1.5,6,-2
CNC[C@H]1Oc2ccc(N(C)C)cc2CC(=O)N([C@@H](C)CO)C[C@@H]1C,0.28,·,-4,-3
C[C@H](CO)N1C[C@H](C)[C@H](CN(C)C(=O)NC2CCCCC2)Oc2c(NS(=O)(=O)c3ccccc3)cccc2C1=O,-0.45,0.4,18,12
COc1ccc(S(=O)(=O)Nc2ccc3c(c2)CC(=O)N([C@H](C)CO)C[C@@H](C)[C@@H](CN(C)Cc2ccncc2)O3)cc1,0.39,3.3,23,-8
Cc1noc(C)c1NC(=O)Nc1ccc2c(c1)CC(=O)N([C@@H](C)CO)C[C@@H](C)[C@@H](CN(C)S(=O)(=O)c1ccc(F)cc1)O2,0.18,0.9,-13,6
CCOC(=O)c1cnc2c(c(C)nn2C)c1Sc1nnc(SC)s1,0.78,-5.5,84*,19
Cc1noc(C)c1NC(=O)N(C)C[C@@H]1Oc2c(NC(=O)C3CCOCC3)cccc2C(=O)N([C@@H](C)CO)C[C@H]1C,0.35,0.7,3,-5
Cc1noc(C)c1S(=O)(=O)Nc1cccc2c1O[C@H](CN(C)C(=O)Nc1ccc3c(c1)OCO3)[C@H](C)CN([C@@H](C)CO)C2=O,0.11,0.9,9,1
C[C@@H]1CN([C@@H](C)CO)C(=O)Cc2cc(NS(=O)(=O)c3ccc(Cl)cc3)ccc2O[C@@H]1CN(C)S(=O)(=O)c1cn(C)cn1,0.083,2.0,-8,1
Cc1ccc(C(=O)NCCc2ccc(S(N)(=O)=O)cc2)o1,·,0.6,·,-21
C[C@@H]1CN([C@H](C)CO)C(=O)Cc2cc(NS(C)(=O)=O)ccc2O[C@@H]1CN(C)S(C)(=O)=O,0.099,1.2,-25,-12
C[C@H]1CN([C@@H](C)CO)C(=O)c2cccc(NS(C)(=O)=O)c2O[C@@H]1CN(C)S(=O)(=O)c1ccccc1,-0.04,·,7,-2

Exported as labelled records: entries from further up
mol: C[C@@H]1CN([C@@H](C)CO)C(=O)Cc2cc(NS(=O)(=O)c3ccc(Cl)cc3)ccc2O[C@@H]1CN(C)S(=O)(=O)c1cn(C)cn1
  YB-1 expr inh = 0.083
  PD-1 reverse act = 2.0
  Shh pathway inh = -8
  MITF inhib = 1
mol: Cc1ccc(C(=O)NCCc2ccc(S(N)(=O)=O)cc2)o1
  YB-1 expr inh = ·
  PD-1 reverse act = 0.6
  Shh pathway inh = ·
  MITF inhib = -21
